# KCNQ2 enhance = enhances the rat KCNQ2 potassium channel. O88943. CHO-K1 KCNQ2, FluxOR thallium flux fluorescence; hits give high values. B-score at 10 µM. actives 0.54% (n = 310,000). AID 2239;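 active means fluorescence ratio B-score at least 3 SD of library B-scores, with initial fluorescence B-score within 3 SD, cut at about 5.3 in these data; same plate scores as AID 2156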;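 further: B-score of peak minus minimum over baseline fluorescence ratio after K+ and Tl+ stimulus; positive B-score means potentiation of KCNQ2 with more thallium influx and brighter signal; only the inactives scoring about 0 or higher are listed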
# Target sequence (O88943 whole entry, looked up): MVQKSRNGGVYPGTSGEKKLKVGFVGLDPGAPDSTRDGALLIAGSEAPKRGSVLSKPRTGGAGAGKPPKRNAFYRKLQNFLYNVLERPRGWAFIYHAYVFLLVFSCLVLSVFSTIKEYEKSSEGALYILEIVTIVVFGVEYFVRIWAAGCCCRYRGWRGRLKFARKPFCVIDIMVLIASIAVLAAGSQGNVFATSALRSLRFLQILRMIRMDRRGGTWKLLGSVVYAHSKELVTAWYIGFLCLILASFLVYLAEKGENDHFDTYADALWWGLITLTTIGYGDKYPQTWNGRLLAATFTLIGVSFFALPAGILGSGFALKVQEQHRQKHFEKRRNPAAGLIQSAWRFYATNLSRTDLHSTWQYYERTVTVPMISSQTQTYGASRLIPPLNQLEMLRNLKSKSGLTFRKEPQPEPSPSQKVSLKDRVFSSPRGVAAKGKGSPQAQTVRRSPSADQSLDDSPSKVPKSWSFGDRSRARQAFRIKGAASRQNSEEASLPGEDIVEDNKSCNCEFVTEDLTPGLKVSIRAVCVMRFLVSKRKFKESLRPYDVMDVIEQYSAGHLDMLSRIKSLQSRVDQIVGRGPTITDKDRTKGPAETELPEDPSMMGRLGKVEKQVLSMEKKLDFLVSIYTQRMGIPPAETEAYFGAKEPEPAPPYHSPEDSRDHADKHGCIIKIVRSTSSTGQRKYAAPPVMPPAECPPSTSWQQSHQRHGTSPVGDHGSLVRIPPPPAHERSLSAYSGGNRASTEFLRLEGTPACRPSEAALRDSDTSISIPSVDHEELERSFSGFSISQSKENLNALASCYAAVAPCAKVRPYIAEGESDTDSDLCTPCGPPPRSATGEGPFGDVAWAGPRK
# KCNQ2 enhance baseline = recorded beside KCNQ2 enhance, whose call it bears; B-score; compound at 10 µM; measured here: initial fluorescence intensity artifact check;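 brightness before thallium and not channel activity; 0 = typical well and far values either way flag optical interference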
# Starred values were filed as active, the others as inactive.
SMILES | KCNQ2 enhance | KCNQ2 enhance baseline
COCCNC(=O)c1c(CS(=O)(=O)c2ccccc2)noc1C(=O)NCc1ccccc1 | 0.33 | -1.7
Nc1ccc(C(=O)OCc2nc3c(ccc4ccccc43)[nH]2)cc1 | 0.33 | 0.03
COCCCn1c(=O)/c(=C\c2ccccc2OC(F)F)s/c1=C(/C#N)C(=O)N1CCOCC1 | 0.69 | 0.92
O=c1[nH]c(SCc2cccc(F)c2)nc2c1CCCC2 | 0.96 | 0.49
O=C(CCN1C(=O)/C(=C\c2cccs2)SC1=S)Nc1nccs1 | 1.2 | 0.08
O=C(COc1ccc2ccc(=O)oc2c1)NCCCN1CCCC1=O | 0.36 | 0.57
O=S(=O)(c1ccccc1)c1cnn2c(C(F)(F)F)cc(-c3ccccc3)nc12 | 0.6 | -0.25
CCN(CC)C(=O)CNc1ccc(C(F)(F)F)cc1[N+](=O)[O-] | 1.7 | 0.04
Cc1ccc(NC(=O)OCC(F)(F)C(F)F)cc1NC(=O)OCC(F)(F)C(F)F | 0.92 | -2
O=C(O)c1cc(-c2ccccc2)n(-c2ccccc2)n1 | 1.1 | -2.9
CNC(=O)CSc1nc2ccccc2c(=O)n1CCc1ccccc1 | 0.68 | -0.05
COc1cc(/C=C/C(=O)N2CCc3ccccc3C2)cc(OC)c1OC | 2 | -1.7
CC(Oc1ccc(Cl)cc1)C(=O)Nc1ccc(S(=O)(=O)Nc2nccs2)cc1 (centres undefined) | 1.4 | -0.57
CC1CCC2C(=O)N(c3ccc(NC4CCCCC4)c([N+](=O)[O-])c3)C(=O)C2C1 (centres undefined) | 0.08 | -1.2
CC(CCc1ccccc1)NC(=O)c1ccc(Cl)nc1 (centres undefined) | 0.36 | -0.64
O=C1C2C3C=CC(C3)C2C(=O)N1CNc1ccccn1 (centres undefined) | 0.6 | 0.92
Cc1ccc2c(c1)[nH]c1c(=O)n(Cc3ccco3)cnc12 | 0.85 | -0.01
Cc1ccc(Cn2nnc3c(=O)[nH]c(C4CCN(S(=O)(=O)c5ccccc5)CC4)nc32)cc1 | 0.16 | 0.24
CCn1c(-c2ccccc2)c[nH]c1=S | 1.8 | 0.08
COc1cccc(/C=N/n2cnc3ccccc32)c1OC | 0.3 | 0.12
CC1(C)CC(=O)C=C(NCC2CCCO2)C1 (centres undefined) | 1.5 | -0.68
COc1ccc2[nH]cc(CCN3C(=O)c4ccc(C(=O)O)cc4C3=O)c2c1 | 0.93 | 0.72
ON/C=N/C(=S)Nc1ncc(C(F)(F)F)cc1Cl | 11* | 1.6*
Cc1ccc(NC(=O)C2C3CC4OC(=O)C2C4C3)cc1Cl (centres undefined) | 0.35 | -0.24
Cc1cc(C)n(-c2ccc(S(N)(=O)=O)cc2[N+](=O)[O-])n1 | 0.84 | 0.18
O=S(=O)(Nc1ccc(Cl)cn1)c1ccc(F)cc1 | 1.1 | 0.31
CCOC(=O)CC(NS(=O)(=O)Cc1ccccc1)c1ccc(C)cc1 (centres undefined) | 1.7 | 0.02
Cn1c(CSCc2ccc(Cl)c(Cl)c2)n[nH]c1=S | 0.07 | -0.66
COC(=O)c1c(C)cc(C)c2c1CC(C)(C)C2=O | 0.53 | -0.6
O=C(Nc1cccnc1)c1ccc(-c2cc(Cl)ccc2Cl)o1 | 0.02 | 1.6

# Quoted at random: 2 records from the list, in no set order.
SMILES | KCNQ2 enhance | KCNQ2 enhance baseline
Nc1ccc(C(=O)OCc2nc3c(ccc4ccccc43)[nH]2)cc1 | 0.33 | 0.03
ON/C=N/C(=S)Nc1ncc(C(F)(F)F)cc1Cl | 11* | 1.6*

# Further compounds:
SMILES | KCNQ2 enhance | KCNQ2 enhance baseline
O=C(O)CC12CSc3[nH]c(=O)sc3C1c1ccccc1OC2=O (centres undefined) | 1.2 | 0.91
O=C(CN(C(=O)CNS(=O)(=O)c1ccccc1)c1ccc2c(c1)OCCO2)NC1CCCCC1 | 1 | -0.09
C=CCN1C(=O)c2ccc(C(=O)N(C)CC(=O)Nc3ccccc3C(F)(F)F)cc2C1=O | 1.8 | 0.93
COc1ccc(CCN(Cc2ccc(C(C)C)cc2)S(=O)(=O)c2ccc(S(=O)(=O)N(C)C)cc2)cc1OC | 0.48 | -1.1
Cc1nn(CCC(=O)NCCc2ccccc2Cl)c(=O)c2nn(-c3ccccc3)c(C)c12 | 0.07 | -3.2
CCCc1nnc(SCC(=O)N2C(C)CCCC2C)n1CC1CCCO1 (centres undefined) | 0.02 | -1.1
Nn1c(N2CCCCC2)nc2ccccc21 | 0.09 | 0.12
Cc1ccc(C(=O)OCCOc2cccc(Cl)c2)cc1S(=O)(=O)N1CCOCC1 | 0.27 | -1.5
Cc1ccc(N(CC(=O)NC(C)C)C(=O)CCC(=O)Nc2nccs2)cc1C | 0.01 | 0.02
COc1cccc(C(=O)c2sc(NC(C)C)nc2N)c1 | 0.59 | 1.6
O=C(OCCN=C1NS(=O)(=O)c2ccccc21)c1cccs1 | 0.01 | 0.6
COc1ccccc1OCC(=O)Nc1ccncc1 | 0.34 | 0.11
COC(=O)CN1C(=O)N/C(=C/c2ccc(C)o2)C1=O | 1 | 0.74
COc1ccccc1NCC(=O)N/N=C(\C)c1ccc(Br)s1 | 0.46 | 0.31
Cc1cc(C)cc(NC(=O)C[n+]2ccccc2)c1 | 1 | -0.04
NC(=O)C1CCN(S(=O)(=O)Cc2ccccc2Cl)CC1 | 0.08 | -1.8
COc1ccc(NC(=O)CC2C(=O)NCCN2C(=O)Nc2ccc(C(F)(F)F)cc2)cc1 (centres undefined) | 1.2 | 1.1
CCOc1cccc(/C=N/N2C(=O)CSC2=S)c1O | 1.2 | 0.03
CC(C)CCn1c(SCC(=O)NC2CC2)nc2cc(Cl)ccc2c1=O | 2.4 | 0.18
COc1cccc(/C=N/NC(=O)C(C)n2nc(C)c([N+](=O)[O-])c2C)c1O (centres undefined) | 1.8 | 0.43

# Among those listed so far, these contain an aryl thioether with sulfur outside any ring:
SMILES | KCNQ2 enhance | KCNQ2 enhance baseline
O=c1[nH]c(SCc2cccc(F)c2)nc2c1CCCC2 | 0.96 | 0.49
CNC(=O)CSc1nc2ccccc2c(=O)n1CCc1ccccc1 | 0.68 | -0.05
CCCc1nnc(SCC(=O)N2C(C)CCCC2C)n1CC1CCCO1 (centres undefined) | 0.02 | -1.1
CC(C)CCn1c(SCC(=O)NC2CC2)nc2cc(Cl)ccc2c1=O | 2.4 | 0.18

# (listing goes on)
SMILES | KCNQ2 enhance | KCNQ2 enhance baseline
Cc1cc(C)cc(-n2c(C)cc(/C=N/NC(=O)c3cccc([N+](=O)[O-])c3C)c2C)c1 | 0.67 | -0.22
CCOc1ccccc1NC(=O)c1nnn(CC(=O)Nc2cc(C)cc(C)c2)c1N | 2.1 | -1.6
CCCNC(=S)N1CCC(C(=O)c2ccc(Cl)cc2)CC1 | 1.5 | -1.4
Cc1ccc(NC(=O)C2CCCN(S(=O)(=O)c3cccnc3)C2)c(C)c1 (centres undefined) | 0.44 | 0.01
N#Cc1c(Cl)nc(-c2cccnc2)nc1-c1ccccc1 | 0.42 | -1.8
CCCC(C(=O)NCCC(C)C)N(Cc1ccccc1Cl)C(=O)c1snc(C(N)=O)c1N (centres undefined) | 2 | 0.61
COC(=O)c1sc(-c2ccc(C(C)(C)C)cc2)cc1NC(=O)COCC(=O)O | 3 | 0.03
O=C(CCn1c(=O)sc2ccccc21)NCc1cccs1 | 0.28 | -0.19
CCc1c(C)nc(SC)n(CC#N)c1=O | 0.7 | 0.09
O=C(C1CCN(S(=O)(=O)c2ccccc2)CC1)N1CCCCC1 | 0.12 | -1.1
COC(=O)C1=C(Nc2ccccc2NC(=O)CCCC(=O)O)CSC1 | 0.96 | 0.33
CCOC(=O)c1c(C)nc2sc3c(=O)[nH]cnc3c2c1-c1ccc(OC)cc1 | 0.64 | 0.42
CO[C@H]1C=CO[C@@]2(C)Oc3c(C)c(O)c4c(O)c(c5c(c4c3C2=O)NC2(CCN(CC(C)C)CC2)N=5)=NC(=O)C(C)=CC=C[C@H](C)[C@H](O)[C@@H](C)[C@@H](O)[C@@H](C)[C@H](OC(C)=O)[C@@H]1C | 0.74 | -1.4
CCCc1ccc(S(=O)(=O)N/N=C\c2ccc3c(c2)OCO3)cc1 | 0.11 | -0.14
O=C(O)CC1NCCc2ccccc21 (centres undefined) | 0.97 | 1.8
Cn1c(NC(=O)Cc2ccc(F)cc2)cc(=O)n(C)c1=O | 0.79 | -1.2
Cc1cccc(/C=N/NC(=O)Cc2ccc(Cl)cc2)c1O | 7.2* | 0.13*
Cc1ccc(S(=O)(=O)Nc2ccnc(-c3cccnc3)n2)cc1 | 0.02 | 0.48
CCCCn1c(CN2CCN(c3ccccc3)CC2)nc2c1c(=O)n(C)c(=O)n2C | 1.2 | 0.14
CCn1c(SCC(=O)Nc2ccc3c(c2)c2ccccc2n3CC)nnc1-c1cnccn1 | 1 | -0.43
Cc1ccc(N(C(=O)C2CCCO2)C2C=CS(=O)(=O)C2)cc1Cl (centres undefined) | 0.17 | -0.55
Nc1c(C(=O)NCc2ccco2)sc2nc3c(cc12)C(=O)CCC3 | 1.1 | -0.66
CC(C)=C1SC(N2CCOCC2)=NC1=O | 0.89 | 1.1
O=C(Nc1ccc2c(c1)OCO2)c1ccc[n+]([O-])c1 | 0.34 | 0.59
Cc1ccc(-c2nc(=S)c3c(n2CCN2CCOCC2)CC(C)(C)OC3)cc1 | 0.92 | 0.67
Cc1[nH]nc2oc(=O)c(CCO)c(C)c12 | 0.27 | 0.5
CCOC(=O)c1ccc(NC(=O)CNC(=O)c2ccccc2)cc1 | 0.37 | -0.2
O=C(C1=C(O)C(=O)N(CCN2CCOCC2)C1c1ccccc1)c1cccs1 (centres undefined) | 1.4 | -0.47
CCOC(=O)NC1(C(F)(F)F)N=C(c2ccccc2)NC1=O (centres undefined) | 0.85 | -0.01
CC(C)CCNC(=O)CN(Cc1ccc2c(c1)OCO2)C(=O)CCC(=O)Nc1ccccn1 | 0.04 | 0.84

# Copied from the list.
# NC(=O)C1CCN(S(=O)(=O)Cc2ccccc2Cl)CC1 in KCNQ2 enhance is listed with 0.08
# CC(CCc1ccccc1)NC(=O)c1ccc(Cl)nc1 (centres undefined) in KCNQ2 enhance baseline is listed with -0.64

# Other entries follow:
SMILES | KCNQ2 enhance | KCNQ2 enhance baseline
Cc1cccc(Cc2nnc(CCC(=O)N(C)C3CCOC3)o2)c1 (centres undefined) | 2.5 | -2
COc1ccc(C2=NN(CCC(=O)NCc3ccc4c(c3)OCO4)C(=O)CC2)cc1 | 1.1 | 0.38
Cc1ccccc1NC(=O)Cn1c(=O)n(C)c2ccccc21 | 0.64 | -0.37
CCN(c1ccccc1)S(=O)(=O)c1cc2c3c(c1)C(C)C(=O)N3CCC2 (centres undefined) | 0.9 | 0.42
O=C(Nc1ccc([N+](=O)[O-])cc1)Nc1ccon1 | 1.2 | 0.02
CC(NC(=O)Nc1ccccc1F)C(C)(C)C (centres undefined) | 0.87 | 0.16
Cc1ccc(CNS(=O)(=O)c2ccc([N+](=O)[O-])cc2)cc1 | 0.02 | -0.9
CCn1c(Cc2ccc(OC)cc2)nnc1SCC(=O)Nc1nc2ccccc2s1 | 0.18 | 0
COc1ccc(C2C(C#N)=C(N)N(Nc3ccccc3)C3=C2C(=O)CC(C)(C)C3)cc1C (centres undefined) | 0.76 | 1.9
COc1ccc(NC(=O)c2ccc(Cn3cc(Cl)cn3)cc2)cc1 | 3.9 | 3
CCCOC(=O)Nc1nc(-c2ccc(C)cc2)c(C)s1 | 0.63 | -0.77
CCC1Sc2ccc(S(=O)(=O)CCC(=O)Nc3ccc(C(=O)OC)cc3)cc2NC1=O (centres undefined) | 0.05 | -0.43
Cc1ccc(C(C)C)cc1OCCOCCN1CCCC1 | 0.65 | -0.8
Cc1ccc(C(=O)N(C)CC(=O)Nc2cccc(C)c2C)o1 | 2.1 | -0.05
CCCCCCCOC(=O)c1ccc(OC(=O)c2cccnc2)cc1 | 1 | 0.3
COc1cnc(SCC(=O)O)[nH]c1=O | 1.1 | 2.7
COc1cc(C=C2C(=O)c3ccccc3C2=O)cc(OC)c1OC | 1.3 | -0.31
CCOC(=O)N1CCN(C(=O)/C(=C/c2cccs2)NC(=O)c2cccs2)CC1 | 0.48 | 0.46
CCOc1ccc(OCC)c(NC(=O)CNS(=O)(=O)c2cccs2)c1 | 1.5 | 0.71
CC1CCN(S(=O)(=O)c2ccc(S(=O)(=O)NCc3ccccc3)cc2)CC1 | 0.95 | -0.04
CCOc1ccc(C(=O)NC(=S)Nc2cccc(NC(=O)c3ccco3)c2)cc1[N+](=O)[O-] | 1.9 | -2.2
Cc1cc(NC(=O)c2ccccc2)n(-c2nc3ccccc3[nH]2)n1 | 1.4 | -0.03
Cc1c2c(nc3c(C(=O)NC4CC4)cnn13)CCCC2 | 1.1 | -0.19
CCOC(=O)C1CCN(C(=O)CSCCSCC(=O)N2CCC(C(=O)OCC)CC2)CC1 | 0.05 | -1.2
CCc1ccc(N2CC(C(=O)Nc3ccc(C)c(S(=O)(=O)N4CCOCC4)c3)CC2=O)cc1 (centres undefined) | 0.15 | -0.67
CCC(C)NC(=O)CC(c1ccccc1)c1cc(C)ccc1O (centres undefined) | 0.08 | 0.08
Nc1nonc1C(=O)NCCNS(=O)(=O)c1ccc(Br)cc1 | 0.82 | -0.48
CCOc1ccc(N(CC(=O)NCc2ccc(C)cc2)S(=O)(=O)c2c(C)[nH]c(=O)[nH]c2=O)cc1 | 0.11 | -1.4
CC(=O)N1CCN(c2ccc(NC(=O)c3ccccc3)cc2)CC1 | 1.1 | -1.1
NC(=O)c1sc2cc(C(F)(F)F)cnc2c1-c1ccccc1 | 1.3 | -2.1
CCCOc1ccc(CSc2n[nH]c(C)n2)cc1 | 1 | -0.41
COC(=O)NC(NC(=S)Nc1cccc(C)c1)C(Cl)(Cl)Cl (centres undefined) | 0.6 | -0.1
Cc1cc(Oc2ccc(=O)n(C)n2)nc(SCc2ccccc2)n1 | 1.6 | -1.2
Cc1cc(=O)n2nc(-c3ccccc3)sc2n1 | 0.59 | 0
COc1ccc(CN=Cc2c(C(F)(F)F)[nH][nH]c2=O)cc1 | 1 | -2.3

# Some of the compounds tested; the hit share may differ from the screen's.
